GIV Gai3 FP – blocks GIV peptide binding to rat Galpha-i3 | 210,000 tested, 0.42% active | percent of control (FP), % (concentration not given with the values) | P08753 | Galpha-i3/FITC-GIV peptide fluorescence polarization, 90 min; active compounds read low; scaled: aluminum fluoride 0%, vehicle 100%;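 active means replicate mean at 85% of control or lower, very high polarization wells dropped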;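 further: wells of about 15 µL received 100 nL stock; the first replicate is given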
Target sequence (P08753 whole entry, looked up): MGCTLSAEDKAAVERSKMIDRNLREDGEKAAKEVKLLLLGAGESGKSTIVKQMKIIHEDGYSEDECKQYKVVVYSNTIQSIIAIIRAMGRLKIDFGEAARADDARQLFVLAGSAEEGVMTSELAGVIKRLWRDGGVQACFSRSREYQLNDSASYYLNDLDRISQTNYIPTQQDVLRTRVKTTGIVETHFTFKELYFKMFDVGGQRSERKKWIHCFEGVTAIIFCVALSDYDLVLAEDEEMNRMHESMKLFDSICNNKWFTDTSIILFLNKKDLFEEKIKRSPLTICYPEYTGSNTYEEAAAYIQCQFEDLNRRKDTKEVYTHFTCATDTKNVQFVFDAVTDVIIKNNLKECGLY
HCMV NEC inh – disrupts HCMV UL50-UL53 complex binding; AID 1918969; inhibition, % (test concentration not listed); 190,000 tested, 0.15% active; HTRF UL50-UL53 interaction, normalized percent inhibition;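 active means both replicates at 50% or more, plus weaker picks with an unusually low signal ratio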;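 further: stock transfer was 100 nL into about 20 µL; 0% = negative control wells and 100% = wells with untagged competitor protein; inactives centre near -12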
Sa growth inh – blocks Staphylococcus aureus growth. relative growth, % (concentration not given with the values). S. aureus RN4220 growth, OD600, 20 h, 42 °C; active compounds read low. 170,000 tested, 0.53% active;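 active means growth at 42 °C up to 50% and 20 or more points under that at 30 °C, or under 10% at both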;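 further: 300 nL library stock went into each well; scaled to the means of positive and negative controls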
Sa growth inh second temp – further read-out of Sa growth inh, marked with its call; relative growth, %; measured here: growth at 30 °C;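 optical density after 20 h as mean of two plates; 100% = untreated growth and lower means inhibition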
* marks the source's active call; other numbers are inactive results; / = no result given; & = joins results of further samples.

SMILES	GIV Gai3 FP	HCMV NEC inh	Sa growth inh	Sa growth inh second temp
COc1cc(NC(=O)CSc2nc(C)c(C(=O)Nc3ccccc3)c(-c3ccc(OC)c(OC)c3)c2C#N)c(OC)cc1Cl	107	-43	104	90
Cc1ccc(S(=O)(=O)n2nc(-n3c(C)ccc3C)c3c(F)cccc32)c2ccccc12	103	-18	100	97
COc1ccc2[nH]c(C(=O)N(C)c3ccccc3Cl)cc2c1	98	4	111	79
COc1ccc(CCNC(=O)CSc2nc3ccccc3nc2Cc2ccc(Cl)cc2)cc1OC	101	/	97	90
Cc1cc(C)cc(OCCSc2nc3ccccc3n2CCC#N)c1	/	-4	96	96
O=C1NC(c2ccccc2)=N/C1=C/c1cccs1	104	-2	110	88
O=C(CN1C(=O)C2C3C=CC(C3)C2C1=O)Nc1ccc2ncccc2c1 (stereo not given)	96	/	104	81
Cc1nn(-c2ccc(N3CCOCC3)nn2)c(C)c1CCC(=O)Nc1ccc(F)cc1F	102	/	99	99
CC1CN(C(=O)CCC(=O)NCc2ccc(F)cc2)c2cc(Cl)ccc2O1 (stereo not given)	97	2	86	93
O=C(CSc1nnc(SCC(=O)NCC2CCCO2)s1)NCC1CCCO1 (stereo not given)	/	-12	98	84
CCn1c2ccccc2c2cc(NC(=O)Cc3cn(C)c4ccccc34)ccc21	106	-30	/	/
Clc1ccc(CCNc2ncnc3c2nc2n3CCCC2)cc1	107	-21	110	70
CCc1ccc(NC(=O)CSc2nccn2-c2ccc(OC)cc2)cc1	111	/	91	100
Cn1c(C2Sc3ccccc3NC2=O)ccc1C1Sc2ccccc2NC1=O (stereo not given)	/	-34	92	87
CC(=O)N1c2ccc(S(=O)(=O)NC(Cc3ccccc3)C(=O)Nc3ncccc3C)cc2CC1C (stereo not given)	102	-4	/	/
O=C(CCc1nc(-c2cccs2)no1)Nc1ccccc1[N+](=O)[O-]	102	-61	99	83
Fc1ccc(-c2ccc(C=Nc3ccc(F)c(F)c3)[nH]2)cc1	/	-39	79	93
CCCCn1c(CSc2ccccn2)cn(-c2nnc(C(C)(C)C)s2)c1=O	104	-4	98	88
CCN(CC)Cc1oc(-c2ccccc2)cc1C(=O)O	105	-8	105	86
Cn1c2ccccc2c2nnc(SCC(N)=O)nc21	101	-66	107	85

Among those listed so far, these contain a Cl atom.
SMILES	GIV Gai3 FP	HCMV NEC inh	Sa growth inh	Sa growth inh second temp
COc1cc(NC(=O)CSc2nc(C)c(C(=O)Nc3ccccc3)c(-c3ccc(OC)c(OC)c3)c2C#N)c(OC)cc1Cl	107	-43	104	90
COc1ccc2[nH]c(C(=O)N(C)c3ccccc3Cl)cc2c1	98	4	111	79
COc1ccc(CCNC(=O)CSc2nc3ccccc3nc2Cc2ccc(Cl)cc2)cc1OC	101	/	97	90
CC1CN(C(=O)CCC(=O)NCc2ccc(F)cc2)c2cc(Cl)ccc2O1 (stereo not given)	97	2	86	93
Clc1ccc(CCNc2ncnc3c2nc2n3CCCC2)cc1	107	-21	110	70

Further results follow:
SMILES	GIV Gai3 FP	HCMV NEC inh	Sa growth inh	Sa growth inh second temp
Cc1nc(-c2cc(C#N)c(Oc3ccc(C(F)(F)F)cc3)nc2C)cs1	100	-2	92	99
CCOc1cc(C2N3CCc4ccccc4C3CN2S(=O)(=O)c2ccc(C)cc2)ccc1OC (stereo not given)	/	-4	83	90
O=C(Nc1ccc(F)cc1Cl)C1CCN(C(=O)c2cccn2-c2cccnc2)CC1	100	-9	/	/
COc1ccc(C(=O)c2oc3ccccc3c2NC(C)=O)cc1	110	-7	93	88
CC(C)(C)c1ccc(C(=O)On2c(-c3ccccc3F)nc3ccccc3c2=O)cc1	101	-13	/	/
Cc1cc(C)cc(C(=O)N2CCCCCC2)c1	96	-1	114	95
CCc1cccc(N2C(=O)C(Cc3ccccc3)N=C2N2CCCCC2)c1 (stereo not given)	102	-16	91	82
COc1ccc(C(=O)Nc2c(O)c3ccccc3oc2=O)cc1OC	102	2	98	89
CCN(CC(=O)Nc1ccc2c(c1)OCCO2)C(=O)/C=C/c1ccco1	/	-60	97	90
Cc1cccc(-n2ncc(C(=O)N3CCCC3)c2-n2cccc2)c1	95	-1	104	96
COc1ccc(CNC(=O)c2cc(-c3ccc(Br)s3)nc3ccccc23)c(OC)c1	104	-13	110	90
Cc1nc2ccccc2n1CCc1nc2c3ccccc3nc(SCc3ccc(F)cc3)n2n1	107	/	89	98
O=C(O)COc1ccc(/C=C2\SC(=O)N(Cc3ccc(F)cc3)C2=O)cc1	100	/	96	94
COc1ccc(-c2nc3sc(CCNC(=O)c4ccc(Br)o4)c(C)n3n2)cc1	101	/	106	58
Cc1c(Cl)cccc1NC(=O)CSc1ncnc2c1sc1ccccc12	103	/	167	80
O=C(CSc1nc2ccccc2n1-c1ccccc1)N1CCCC1	/	-42	109	81
CCOC(=O)c1nc[nH]c1C	/	21	98	100
Cc1cc(N2CC(C)CC(C)C2)nc2cc(Cl)ccc12 (stereo not given)	97	-3	100	102
COc1ccc(CCN(Cc2cc3cc(C)ccc3n3nnnc23)C(=O)N(C)C)cc1OC	98	-25	117	86
CCOc1nc(Nc2ccc(I)cc2C)nc(NC2CCCCC2)n1	99	/	81	90

Given comma-delimited: entries from further up.
SMILES,GIV Gai3 FP,HCMV NEC inh,Sa growth inh,Sa growth inh second temp
CCOc1cc(C2N3CCc4ccccc4C3CN2S(=O)(=O)c2ccc(C)cc2)ccc1OC (stereo not given),/,-4,83,90
Cc1c(Cl)cccc1NC(=O)CSc1ncnc2c1sc1ccccc12,103,/,167,80
CCc1cccc(N2C(=O)C(Cc3ccccc3)N=C2N2CCCCC2)c1 (stereo not given),102,-16,91,82

Going on with the list:
SMILES	GIV Gai3 FP	HCMV NEC inh	Sa growth inh	Sa growth inh second temp
O=S(=O)(c1cnc[nH]1)N1CCCC1c1cccc(F)c1 (stereo not given)	97	-20	/	/
Cc1ccc(Nc2cc(N3CCCCC3)c3nonc3c2[N+](=O)[O-])c(C)c1	98	-25	/	/
CC1CCN(C(=O)c2cccc(N3C(=O)CCS3(=O)=O)c2)CC1	104	-18	/	/
CCC(C)C1C(C#N)=C(N)OC2=C1C(=O)CC(C)(C)C2 (stereo not given)	115	-4	96	96
CC(C)=CC[C@@H](O)C1=CC(=O)c2c(O)ccc(O)c2C1=O	99	-83&-26	47	21
COC(=O)CC(=O)CN1C(=O)c2ccccc2C1=O	105	-16	129	99
CN1CCN(Cc2c(O)ccc3c(=O)c(-c4ccc(Cl)cc4Cl)c(C(F)(F)F)oc23)CC1	99	/	89	94
O=C(CCCn1c(=O)c2cccn2c2ccccc21)NCc1cccnc1	104	/	111	77
CCOc1cc(C2C(C#N)=C(N)Oc3n[nH]c(-c4ccc5c(c4)OCO5)c32)ccc1OC(=O)c1ccco1 (stereo not given)	99	-16	/	/
Cc1cccc(N2N=C(C(=O)N3CCc4ccccc4C3)CCC2=O)c1	/	-21	63	83
COc1ccc(C)cc1NC(=O)c1ccc2nc(Cc3ccccc3)oc2c1	107	/	113	103
O=C(Nc1cccnc1Oc1ccc(Cl)cc1)c1ccccc1Cl	116	2	122	94
Cc1nn(C)cc1CN(C)C(=O)c1cnn2c(C(F)(F)F)cc(-c3ccc(Br)cc3)nc12	102	-25	/	/
CN1CCN(NC(=O)CCN2C(=O)/C(=C\c3ccco3)SC2=S)CC1	106	-171	93	84
Cc1noc(C)c1C(=O)COC(=O)c1ccc(S(=O)(=O)N2CC(C)OC(C)C2)cc1 (stereo not given)	/	-8	100	92
CCCCC(=O)Nc1cc2nn(-c3ccc(OCC)cc3)nc2cc1C	105	-15	100	91
CN1C(=O)C(Cc2ccccc2)(Cc2ccccc2)c2ccccc21	111	-10	114	98
Cc1cc(Br)c(S(=O)(=O)C(C)(C)C)c(Br)c1	/	3	70	96
COc1ccccc1Nc1nc(C2(C)CCC(=O)O2)cs1 (stereo not given)	102	/	104	86
Cc1ccc(NC(=O)c2ncn(-c3ccccc3)n2)cc1Cl	109&101	-10&-31	106	98
O=C(OCc1cc(Cl)cc2c1OCOC2)c1ccc2c(=O)n3c(nc2c1)CCCCC3	/	-28	80	91
COc1ccc(NC(=O)C2C3C=CC(C3)C2C(=O)NCc2ccco2)cc1 (stereo not given)	100	-18	111	90
CC1CN(S(=O)(=O)c2cccc(C(=O)N(C)C3CCCCC3)c2)CC(C)O1 (stereo not given)	/	-16	103	90
Cc1cc(OCCCSc2nc(-c3ccc(C(C)(C)C)cc3)nc3cc(=O)[nH]n23)ccc1Cl	95	/	83	56
COc1ccc(S(=O)(=O)CCC(=O)O)cc1	101	-34	101	79
O=C(CC(NCc1ccco1)C(=O)O)Nc1cccc(C(F)(F)F)c1 (stereo not given)	110	7	93	97
CCOc1ccc(NC(=O)NCc2c(-n3cccc3)sc3c2CCCC3)cc1	105	-12	124	106
O=C(COC(=O)c1ccccc1Br)c1cc2ccccc2o1	/	-27	92	84
O=C(NCCc1ccccc1)c1cc(=O)c2ccccc2o1	/	-48	76	82
O=C1CC2(CCCC2)C(=O)N1CN1CCN(S(=O)(=O)c2ccc(F)cc2)CC1	/	-8	102	95
CC(C)(C)C(=O)Nc1c(C(=O)N2CCN(c3ccc(F)cc3)CC2)oc2ccccc12	108	/	97	91
Cc1ccc(-n2ncc(N(C)N3CC(C)(C)C3=O)c(Cl)c2=O)cc1	103	-51	89	87
N#Cc1c(OCC(F)(F)F)ccc(SCc2ccccc2)c1OCC(F)(F)F	101	-43	69	81
O=C(CCc1cn(-c2ccccc2)nc1-c1ccc2c(c1)OCO2)NCC1CCCO1 (stereo not given)	100	-3	/	/
COc1ccc(CNC(=O)CCNc2ccc(C)cc2)cc1	/	-42	91	59
NS(=O)(=O)c1ccc(NC(=O)COC(=O)CN2C(=O)C3CC=CCC3C2=O)cc1 (stereo not given)	/	-25	74	94
COc1ccc(-c2nc3c(C#N)c[nH]n3c2NC2CCCCC2)c(OC)c1	100	-5	113	91
CC(=O)n1c(C=Nc2ccccc2)c(O)c2ccccc21	128	/	97	72
CC(C)CC(=O)N1CCc2c(c(C(=O)NCc3ccccc3)nn2C)C1	106	-8	/	/
COc1ccc(C(Nc2nc(C)cc(C)n2)c2c(NC(=O)c3ccccc3)sc3c2CCCC3)cc1 (stereo not given)	104	-13	/	/
COc1ccc2[nH]cc(CCNC(=O)C3CCN(c4nc5ccccc5n(C)c4=O)CC3)c2c1	99	-35	/	/
O=C(NCCCN1CCN(c2ccccc2F)CC1)c1cc(CN2CCOCC2)on1	102	-34	/	/
O=C(Cn1nnc(-c2ccc(Cl)cc2)n1)NCC(F)(F)F	/	-31	87	97
O=C(CNc1ccc(F)c(Cl)c1)Nc1ccc2c(c1)OCCO2	/	16	80	97
CCC1CCCCN1C(=O)CSc1nnc2c3ccccc3n(CC(=O)O)c2n1 (stereo not given)	102	-51	119	76
CCN(CC)Cn1c(O)c(N=NC(=O)Cc2ccc(OC)cc2)c2cc(Br)ccc21	101	-65	104	75
CC(OC(=O)C1CCN(C(=O)c2ccc(Cl)cc2)CC1)C(=O)NC1CC1 (stereo not given)	/	15	109	95
COc1ccc(OC)c(S(=O)(=O)N2CCN(Cc3nc4ccc(C)cc4o3)CC2)c1	106	/	98	87
CCC(Oc1ccccc1F)C(=O)Nc1cc(-c2ccccc2)no1 (stereo not given)	100	-15	90	79
Cc1c(Cl)cccc1NC(=O)C1CC2CSCN2C12C(=O)Nc1ccccc12 (stereo not given)	107	-36	/	/
More entries follow:
SMILES	GIV Gai3 FP	HCMV NEC inh	Sa growth inh	Sa growth inh second temp
CC(=O)Nc1ccc(C(F)(F)F)cc1N	108	-39	89	87
CCn1c(C(=O)NCCc2ccc(OC)c(OC)c2)cc2sc(Cl)cc21	96	-7	104	73
Cc1ccc(-c2c(N3CCCCC3)c(=O)c2=O)cc1	133	-55	/	/
O=C(c1[nH]c2ccccc2c1-c1ccccc1)N1CCOCC1	103	2	/	/
CCCCOc1ccc(C(=O)Nc2ccc3c(c2)CCCN3S(=O)(=O)c2ccccc2)cc1	103	3	/	/
CCN(Cc1ccccc1)C(=O)c1sc2nc(C)cc(C)c2c1N	/	-40	75	70
CCOc1ccc(CC(=O)NC2CC(C)(C)N(C)C(C)(C)C2)cc1OCC	/	2	93	102
CCc1noc(-c2ccc(NC(=O)C3CC3)cc2)n1	107	-13	/	/
COc1ccc(N2Cc3ccccc3C2=O)cc1	104	-11	103	89
CC1CCCCN1C(=O)c1cc2nc(-c3ccc(Cl)cc3)cc(C(F)(F)F)n2n1 (stereo not given)	103	/	82	85
COc1cccc2cc(-c3cn4ccccc4n3)c(=O)oc12	/	-40	108	93
O=C(Cc1c(F)cccc1Cl)n1nnc2ccccc21	106	-10	113	91
Cn1c(=O)c2ccc(C(=O)NC3CCCC3)cc2n2c(=O)n(CC(=O)c3ccc(Cl)cc3)nc12	105	-32	/	/
CS(=O)(=N/C=C(\C#N)S(=O)(=O)c1ccc(C(F)(F)F)cn1)c1ccc(Cl)cc1 (stereo not given)	101	8	99	89
COC(=O)c1cc2ccsc2n1CC(=O)N(C)C1CCCCC1	110	4	104	99
CCOc1ccc(NS(=O)(=O)c2c(C)nc3sc(CC)nn3c2=O)cc1	108	-7	111	87
CC(C(=O)NCc1cccs1)n1ncn2cccc2c1=O (stereo not given)	100	/	94	90
CCN1CCN(C(=O)c2ccc3c(=O)n(CCc4ccccc4)c(=O)[nH]c3c2)CC1	98	-7	114	84

Screening results: PubChem BioAssay, ICCB-Longwood Screening Facility, Harvard Medical School
